High-throughput results (PubChem)
Vaccinia Venus – inhibitors of vaccinia virus (Venus reporter). Vaccinia virus Venus reporter expression, fluorescence. Potency, µM (doses to about 36.5 µM), for the others: top-dose activity change, negative = inhibition, usual class: inhibitors. 330,000 tested, 0.46% active. AID 720580; active means well fitted inhibition curve with a large enough effect; inconclusive means small, poorly fitted or top-dose-only effect; inactive means no such curve, though single readings can be large or run the other way; tested in A549 cells; also: nearly all actives have a fitted effect of over 30% in size; inactives centre near -10
VACV mCherry inh – inhibitors of vaccinia virus infection (mCherry reporter signal); Vaccinia virus mCherry reporter infection, fluorescence; about a quarter of the inactives have no number; Potency, µM (top dose mostly 36.5 µM), for inactives: top-dose activity change, negative = inhibition, usual class: inhibitors; AID 720579; 310,000 tested, 0.63% active; active = well fitted inhibition curve with a large enough effect; inconclusive = small, poorly fitted or top-dose-only effect; inactive = no such curve, though single readings can be large or run the other way; tested in A549 cells; also: nearly all actives have a fitted effect of over 35% in size; inactives centre near -10
Active calls of the source: *; i = inactive; ? = inconclusive; / = not tested or not shown; [ ] = another dose, or the depositor's remark. % is scaled to controls: 0 for no effect and ±100 for the full control effect; potency is read from the fitted curve at half-maximal effect. Compounds were not picked by outcome; any-hit rate near 0.87%.

Results follow in this order: VACV mCherry inh | Vaccinia Venus
- COc1cccc(-c2c3c([nH]c(=O)c2C#N)CCc2cc(OC)ccc2-3)c1
→ -17% | -6%
- c1ccc2c(CCc3ccncc3)cccc2c1
→ -4% | -15%
- Cc1ccccc1Nc1cc(C(=O)NC2CCCCC2)c2ccccc2n1
→ -12% | -11%
- CCC1(C)Cc2c(sc3c2c2ncnn2c2nnc(SCC(=O)NCc4ccco4)n32)CO1 (stereo unspecified)
→ / | ?
- CCOC(=O)c1cc(-c2ccccc2)n(-c2cccc(C(=O)N(CC)c3ccccc3)c2)c1C
→ -23% | -17%
- CCC(=O)N1CCc2cc(Br)cc(S(=O)(=O)N3CCC(C(=O)N(CC)CC)CC3)c21
→ -21% | -12%
- O=C(O)c1ccccc1C(=O)NCC(O)c1ccccc1 (stereo unspecified)
→ -8% | 2%
- CCC(=O)N/C=C/n1cnc2cc(C(F)(F)F)ccc21
→ -21% | -10%
- COc1ccc(NC2=C(NCCO)C(=O)c3ccccc3C2=O)cc1
→ ? | ?
- Cc1ccc(CNC(=O)CSc2nc(=O)n(Cc3ccco3)c3c2CCC3)cc1
→ i | -8%
- C=CCn1c(O)c(C(CC)=Nc2ccc(C(=O)O)cc2)c(=O)[nH]c1=O
→ -25% | 0%
- COc1ccc(C(=O)NC(=S)N2CCOCC2)cc1[N+](=O)[O-]
→ -11% | -2%
- Cc1cccc(NC(=O)[C@@H](NC(=O)N2C[C@H]3C[C@@H](C2)c2cccc(=O)n2C3)C(C)C)c1
→ -6% | 3%
- CN1C(=O)[C@H]2[C@@H](/C=C/c3ccccc3)N3C(=O)CN(Cc4ccccc4)C(=O)[C@@]3(C)[C@H]2C1=O
→ -15% | -12%
- Cc1c(NC(=S)N2CCN(c3cccc(Cl)c3)CC2)c(=O)n(-c2ccccc2)n1C
→ ? | ?
- COc1ccc(S(=O)(=O)N2CCCCCC2)cc1C(=O)OCC(=O)NCC(C)C
→ i | -9%
- CS(=O)(=O)c1ccc(Nc2nc(C(N)Cc3ccccc3)cs2)cc1 (stereo unspecified)
→ i | -7%
- Cc1cc(C)c(CN2CCC(CO)(CCOc3ccccc3)CC2)cc1C
→ -8% | -21%
- CC1(C)CC(=O)C=C(NCCc2ccccc2)C1
→ -12% | -15%
- C[C@H](CO)N1C[C@H](C)[C@@H](CN(C)Cc2ccncc2)Oc2c(cccc2N(C)C)C1=O
→ i | -1%

Next section (4 carried over from the part before).
Results follow in this order: VACV mCherry inh | Vaccinia Venus
- CS(=O)(=O)c1ccc(Nc2nc(C(N)Cc3ccccc3)cs2)cc1 (stereo unspecified)
→ i | -7%
- Cc1cc(C)c(CN2CCC(CO)(CCOc3ccccc3)CC2)cc1C
→ -8% | -21%
- CC1(C)CC(=O)C=C(NCCc2ccccc2)C1
→ -12% | -15%
- C[C@H](CO)N1C[C@H](C)[C@@H](CN(C)Cc2ccncc2)Oc2c(cccc2N(C)C)C1=O
→ i | -1%
- Cc1cc(C)n2c(SCC(=O)N3CCN(S(=O)(=O)c4ccc(Cl)cc4)CC3)nnc2n1
→ -14% | -15%
- CN(CC(=O)Nc1ccc(S(=O)(=O)N2CCCC2)cc1)Cc1ccc(Cl)cc1Cl
→ ? | -26%
- CCOC(=O)c1[nH]cnc1C(=O)Nc1ccc([N+](=O)[O-])cc1
→ -1% | -4%
- Cc1ccccc1OCc1nc(-c2ccccc2)no1
→ -5% | -3%
- O=C(CNC(=O)c1ccccc1Br)N/N=C/c1cccnc1
→ -3% | -14%
- CCC(C)NC(=O)c1sc2nc(C)c(C(=O)Nc3ccc(C)cc3C)c(-c3ccc(Cl)cc3)c2c1N (stereo unspecified)
→ -1% | -12%
- CCOc1ccc(N=Nc2c(N)[nH][nH]c2=O)cc1
→ -28% | -11%
- Cc1cc(C(=O)N/N=C/c2c(C)[nH]c3ccccc23)n[nH]1
→ -14%[7.34 µM] | 2%[7.34 µM]
- COc1ccc(-c2cc(C(=O)NCCc3ccc(Cl)cc3)[nH]n2)cc1
→ -1% | 1%
- O=[N+]([O-])c1ccc(Cc2ccc([N+](=O)[O-])cc2)cc1
→ -16% | -2%
- CCOC(=O)CSc1n[nH]c(NC(=O)NC(C)C)n1
→ i | -13%
- CCC(=O)Nc1cccc(C2=NOC3(C2)C[C@@H](C(N)=O)N(C(=O)C(c2ccccc2)c2ccccc2)C3)c1 (stereo partly specified)
→ i | -20%
- C=CCc1ccccc1OCC(O)CN1CCN(Cc2ccc3c(c2)OCO3)CC1 (stereo unspecified)
→ -7% | -5%
- O=S1(=O)N=C(c2ccccc2)C=C(c2ccccc2)N1
→ -4% | -6%
- O=C(CN1CCOCC1)N/N=C/c1ccccc1
→ -3% | -11%
- CCOc1ccc(S(=O)(=O)N(C)c2ccc(OCC(=O)Nc3nc(-c4cc(OC)ccc4OC)cs3)cc2)cc1
→ -18% | -17%
- COCC(=O)N1C[C@H]2CON(C)[C@H]2C[C@H]1c1ccc(N2CCCCC2)cc1
→ 11% | -2%
- CCCCc1ccc(NC(=S)NCc2ccccc2OC)cc1
→ -16% | 3%
- CCNC(=S)N1CCN(C(c2ccccc2)c2ccccc2)CC1
→ -18% | -20%
- CCOC(=O)N1CCN(C(=O)C2CC(=O)N(c3ccc(C)cc3)C2)CC1 (stereo unspecified)
→ -8% | -9%
- CCc1nc2ccc(C(=O)N(CC)CCN(C)C)cn2c1N(CC)C(=O)NCCc1ccccc1
→ 12% | -1%
- O=C(Nc1ccccc1C(=O)N1CCN(CCO)CC1)c1cccc([N+](=O)[O-])c1
→ -4% | -10%
- N#C/C(=C\c1cn(Cc2ccc(C#N)cc2)c2ccccc12)C(=O)NCc1cccs1
→ i | -4%
- C/C(=C(/NC(=O)c1ccccc1)C(=O)O)c1ccco1
→ i | -9%
- CC(=O)Nc1nc(-c2cccs2)cs1
→ -6% | 10%
- Cn1c(=O)oc2cc(S(=O)(=O)N3CCCC(C(=O)NCC4COc5ccccc5O4)C3)ccc21 (stereo unspecified)
→ ? | -22%
- COc1ccc(S(=O)(=O)N2CCCOC2CNC(=O)C(=O)NCCCn2ccnc2)cc1 (stereo unspecified)
→ i | 0%
- CC(C)(C)Nc1scc(-c2ccccc2)[n+]1-c1ccccc1
→ -24% | -14%
- O=C(NCCc1ccc(Cl)cc1)C1CCN(C(=O)c2sccc2-n2cccc2)CC1
→ -21% | -27%
- COc1cccc(-n2c(SCC(=O)N3CCc4ccccc43)nc3c([nH]c4ccccc43)c2=O)c1
→ 0% | -5%
- COc1ccc(NC(=O)c2cn(CCC#N)nc2-c2ccc([N+](=O)[O-])cc2)cc1
→ 9% | 4%
- COc1ccc(S(=O)(=O)Nc2ccccc2-c2nc3ccccc3[nH]c2=O)cc1
→ -15% | -24%
- COc1cc(/C=C(\NC(=O)c2ccccc2)C(=O)NC(C(=O)O)c2ccccc2)cc(OC)c1OC (stereo unspecified)
→ -6% | 0%
- OC(c1cc(F)cc(Cl)c1)c1ncc(-c2ccc3ccccc3c2)[nH]1 (stereo unspecified)
→ -9% | -7%
- O=C(Cn1nc(Cc2cccnc2)c2ccccc2c1=O)Nc1ccc2c(c1)OCO2
→ i | -5%
- COc1ccc(Cn2c(C(=O)O)c(CNCCc3cccs3)c3ccc(C)cc32)cc1
→ -16% | -23%
- O=C(CN1C(=O)COc2ccccc21)NCCN1CCc2ccccc2C1
→ i | -3%
- CCCc1ccc(OCC(=O)Nc2sc3c(c2C(=O)OC)CCCCC3)cc1
→ -9% | -2%
- COc1cccc(C2(O)CC(C(F)(F)F)=NN2C(=O)c2ccccn2)c1 (stereo unspecified)
→ -20% | -16%
- CNC(=S)NNC(=O)Cc1ccc(O)cc1
→ -6% | -1%
- COc1cc2c(cc1OC)-c1c(OC)c(OC)cc3c1[C@H](C2)[N+](C)(C)CC3
→ i | -4%
- COc1cc(OC)cc(-c2nc3n(n2)C(c2ccccc2F)C(C(=O)Nc2cccnc2)=C(C)N3)c1 (stereo unspecified)
→ -9% | -16%
- O=C(NCCCn1ccnc1)c1cn(-c2ccccc2)nc1-c1ccc(F)cc1
→ -2% | -22%
- O=C(C1CCN(CC2CC=CCC2)CC1)N(CCc1ccccc1)Cc1ccccc1 (stereo unspecified)
→ -10% | 1%
- CC1=C2C(=O)OC(c3ccoc3)C2(C)CCC1 (stereo unspecified)
→ / | -1%
- CCOC1=C2[C@@H](CN(S(=O)(=O)c3ccc(C)cc3)[C@H]2c2ccccc2F)[C@H]2C(=O)N(c3ccccc3)C(=O)[C@H]2C1
→ 28% | -4%
- Cc1cc(=O)[nH]c2nnc(SCc3ccc(C(F)(F)F)cc3)n12
→ i | -12%
- Cn1c(=O)n(CCc2ccccc2)c(=O)c2c1nc1n2CCN1Cc1ccco1
→ -1% | -11%
- CCOc1ccc(CCNC(=O)Cn2nc(-c3ccc(C)cc3)ccc2=O)cc1OCC
→ -9% | -5%
- O=C(c1ccco1)[C@@H]1[C@@H]2C(=O)N(c3ccc(Br)cc3)C(=O)[C@@H]2C2c3ccccc3C=CN21 (stereo partly specified)
→ -14%[1.46 µM] | 10%
- COc1ccccc1C1C(C(=O)c2cc3ccccc3o2)=C(O)C(=O)N1CCN(C)C (stereo unspecified)
→ / | -9%
- COc1ccccc1NC(=S)NC(=O)CCCOc1ccc(Cl)cc1Cl
→ -23% | -7%
- CNC(=O)C(=O)NCC1OCCN1S(=O)(=O)c1ccc(OC)c(OC)c1 (stereo unspecified)
→ -12% | -10%
- C=CCNC(=S)N1CCC(C(=O)c2ccc(OC)cc2)CC1
→ -24% | -14%
- CC(Cl)C(=O)Nc1ccccc1C#N (stereo unspecified)
→ i | -3%
- Cc1cc(-c2sccc2Br)nc(-n2cccc2)n1
→ 3% | -4%
- CC(C)NC(=O)N1CCC(N2CCN(Cc3ccc(F)cc3)C(=O)C2=O)CC1
→ 0% | 7%
- O=c1[nH]c2cc([N+](=O)[O-])ccc2c2ccccc12
→ -13% | -2%
- CCCn1nnnc1SCC(=O)NCc1cccs1
→ -9% | -12%
- CCOc1ccc(-c2ncncc2-c2ccc(OC)cc2)c(O)c1
→ / | -35%

(next part)
Results follow in this order: VACV mCherry inh | Vaccinia Venus
- COc1cc(NC(=O)COC(=O)c2cc(S(=O)(=O)N3CCOCC3)ccc2F)cc(OC)c1
→ -18% | -15%
- O=S1(=O)CCC(NC(=S)Nc2ccccc2)C1 (stereo unspecified)
→ i | -9%
- O=C(CSc1nc(C(F)(F)F)cc(=O)[nH]1)NCc1ccc2c(c1)OCO2
→ -7% | -4%
- CCC(C)Nc1nnc(SCC(=O)c2c(N)n(C3CC3)c(=O)[nH]c2=O)s1 (stereo unspecified)
→ -16% | -9%
- Cc1ccc(CCNC(=O)C2CC(c3ccccc3[N+](=O)[O-])=NO2)cc1 (stereo unspecified)
→ -11% | -17%
- Cn1cc(CNCc2ccc(-n3cccn3)cc2)c(-c2ccccc2F)n1
→ -9% | -11%
- CC(=O)N(c1ccc2oc(=O)sc2c1)S(=O)(=O)c1ccccc1
→ -22% | -22%
- COCCNc1ncnc2c1ncn2[C@H]1CN(Cc2ccccc2)C[C@@H](CO)O1
→ 14% | 6%
- COc1ccc(C(=O)O)cc1S(=O)(=O)N(C)CCc1ccccn1
→ -16% | -12%
- O=C(Cn1cnc2ccccc21)N/N=C/c1cccc([N+](=O)[O-])c1
→ -1% | -4%
- CCC(C)NC(=O)c1nn(Cc2ccccc2)c(=O)c2ccccc12 (stereo unspecified)
→ -3% | -10%
- COC(=O)c1cc(OC)c(OC)c(OC)c1N
→ -20% | -12%
- O=C(Nc1ccccc1)Oc1ccccc1N1CCOCC1
→ -14% | -3%
- COc1ccc(C(CNC(=O)c2ccc(-n3cnnn3)cc2)N2CCOCC2)cc1 (stereo unspecified)
→ / | -9%
- Cc1cc2cc(CNC(=O)c3ccc(S(=O)(=O)N4CCOCC4)cc3)ccc2n1C
→ i | 20%
- N#CCc1nc2ccc(S(=O)(=O)N3CCOCC3)cc2s1
→ -14% | 403%[activator]
- COc1ccc2c(c1OC)C(=O)N(c1ccc(F)cc1)C2
→ i | -27%
- Cc1cccc(Nc2c(F)c(F)c(F)c(F)c2C(=O)O)c1
→ 0% | -5%
- COC(=O)C1=C(C)N(c2cccc(OC)c2)C(=O)/C1=C\c1ccco1
→ -10% | -4%
- Cc1cc(/C=C(/C#N)c2nc3ccccc3[nH]2)c(C)n1-c1cccc([N+](=O)[O-])c1
→ / | ?
- NC(=O)CSc1nnc(-c2ccc([N+](=O)[O-])cc2)o1
→ ? | ?
- COc1ccc(CNCc2ccccc2)cc1COc1ccc(NC(C)=O)cc1
→ -12% | -12%
- Cc1nnc(SCc2cccc3ccccc23)s1
→ -5% | -23%
- CCOC(=O)c1c(NC(=O)c2ccc(S(=O)(=O)N(CC(C)C)CC(C)C)cc2)sc2c1CCN(C(=O)OCC)C2
→ -4% | -5%
- Cn1c(SCC(=O)N2CCCC2)nnc1-c1cnccn1
→ -16% | -4%
- COc1ccc(-c2noc(N3CCC(C(=O)N(C)c4cc(Cl)ccc4OC)CC3)n2)cc1
→ -20% | -22%
- COc1ccc(N2CCN(C(=O)COc3ccc4c(C)cc(=O)oc4c3C)CC2)cc1
→ -3% | 2%
- COc1ccc(N/C=C/C(=O)c2ccc(C)cc2)c([N+](=O)[O-])c1
→ i | -18%
- COc1ccc(NC(=O)CN2C(=O)NC3(CCCCC3C)C2=O)cc1S(=O)(=O)N1CCOCC1 (stereo unspecified)
→ i | -1%
- COc1cc(OC)c(OC)cc1CN1CCc2nc(N3CCN(C)CC3)ncc2C1
→ -11% | -7%
